Mtb H37Rv – M. tuberculosis H37Rv growth inhibitors, H37Rv strain (AID 1626) | M. tuberculosis H37Rv growth inhibition; higher % means a stronger effect | inhibition, % at 10 µM, or IC50 in µM where a hit was titrated | 220,000 tested, 0.95% active;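 active = confirmed in a dose series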;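 also: bacteria incubated seven days before Alamar blue readout; 0% = bacteria only wells and 100% = bacteria with antibiotic wells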
Mtb bLac sens – beta-lactam sensitization of Mtb H37Rv, H37Rv; 330,000 tested, 0.27% active; AID 434955, 2010; M. tuberculosis H37Rv growth with meropenem, percent inhibition; hits of this screen are not shown here; inhibition, % at 25 µM;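 active = about 74% or more and at least 40 points above the plate without the antibiotic, then above 30% in a dose series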;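 also: growth measured after seven days incubation then overnight dye step; 0% = bacteria only wells and 100% = bacteria with antibiotic; twin plates without the antibiotic show which effects depend on it; some results filed as inactive read as strong as hits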
RecA splice inh – Mtb RecA intein splicing inhibitors, primary screen, biochemical, fluorescence, HTS; Protein RecA (Mycobacterium tuberculosis (strain ATCC 25618 / H37Rv)), P9WHJ3; cell-free RecA intein splicing; inhibition, %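 (about 9 µM by stock and volumes)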; 290,000 tested, 0.75% active; in the data active = inhibition above about 30%;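 also: 0% = vehicle wells and 100% = reference inhibitor control wells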
Target sequence (P9WHJ3 whole entry, looked up, canonical isoform): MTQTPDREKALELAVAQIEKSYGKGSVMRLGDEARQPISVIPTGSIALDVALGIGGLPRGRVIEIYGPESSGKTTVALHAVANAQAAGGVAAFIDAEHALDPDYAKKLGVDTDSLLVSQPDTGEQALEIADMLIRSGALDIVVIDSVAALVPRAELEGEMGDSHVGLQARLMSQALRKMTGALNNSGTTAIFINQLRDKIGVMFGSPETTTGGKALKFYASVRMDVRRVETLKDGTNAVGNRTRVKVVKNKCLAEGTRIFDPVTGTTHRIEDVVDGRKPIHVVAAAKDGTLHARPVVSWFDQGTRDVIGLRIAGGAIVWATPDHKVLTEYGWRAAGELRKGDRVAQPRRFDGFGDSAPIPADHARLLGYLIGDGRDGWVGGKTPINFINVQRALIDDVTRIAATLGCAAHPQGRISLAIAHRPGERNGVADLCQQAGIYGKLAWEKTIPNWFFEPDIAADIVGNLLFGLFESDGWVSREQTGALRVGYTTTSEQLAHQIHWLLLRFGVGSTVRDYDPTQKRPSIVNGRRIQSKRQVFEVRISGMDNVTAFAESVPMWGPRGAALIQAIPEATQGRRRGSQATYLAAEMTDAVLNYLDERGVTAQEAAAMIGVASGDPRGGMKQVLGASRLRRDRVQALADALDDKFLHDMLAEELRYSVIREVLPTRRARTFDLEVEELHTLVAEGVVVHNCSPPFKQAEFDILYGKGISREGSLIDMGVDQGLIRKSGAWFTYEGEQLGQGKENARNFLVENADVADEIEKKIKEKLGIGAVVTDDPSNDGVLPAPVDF
Arbovirus anti – antivirals against arbovirus infection, primary screen, cell-based, full library, 10K replicate subset; arbovirus infection cell-based antiviral screen; inhibition, % at 10 µM; 200,000 tested, 0.37% active; AID 1251, 2008;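 active = inhibition from about 30%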;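 also: bluetongue infection of BSR cells; cell survival read as ATP light after 72 h; 0% = infected wells without compound and 100% = uninfected wells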
YopH inh – YopH tyrosine phosphatase inhibitors, primary screen, biochemical, fluorescence Ex485/Em525; YopH tyrosine phosphatase [Yersinia enterocolitica]; inhibition, %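 (about 10 µM by stock and volumes)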; 140,000 tested, 0.16% active; AID 898, 2007;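 active = inhibition of 50% or more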;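 also: controls were vehicle for no effect and minimum signal wells for full effect; inactives centre near -20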
Arbovirus anti repeat – further read-out of Arbovirus anti, marked with its call; inhibition, %; measured here: 10K subset replicate screen; many hits read low in the repeat;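 first of two repeat runs on a subset; 0% = infected and 100% = uninfected wells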
The depositor's hits bear a star; x = not tested or not shown.

SMILES	Mtb H37Rv	Mtb bLac sens	RecA splice inh	Arbovirus anti	YopH inh	others
Cc1onc(-c2ccccc2Cl)c1C(=O)NCc1ccc2c(c1)cc(C)n2C	24%	x	4.1	-4	x	Arbovirus anti repeat=-6
COc1ccc(NC(=O)N2CCN(c3nc4ccccc4n3C(C)C)CC2)cc1	0%	-6	3.2	-5	x
CCOC(CNC(=O)Cn1nc(C)c2ccccc21)OCC	-4%	4	-1.2	2	x
CN1C(=S)SC(C)(C)C1(C)NO (centres undefined)	x	-7	-4.3	-2	3
CCc1ccc(-n2cnc3cc(C(=O)NCC(OC)OC)ccc32)cc1	x	3	-2.0	x	x
COC(=O)/C(C#N)=C/c1c(N2CCN(C)CC2)nc2ccccn2c1=O	x	5	-5.0	x	x
Cc1nn(C)cc1C(C(=O)NC1CCCCC1)N(C(=O)Cc1cccs1)c1ccc(Cl)cc1 (centres undefined)	1%	-7	-0.9	3	-22
CC(C)CNC(=S)N1CCC(C(=O)c2ccc3c(c2)OCCO3)CC1	-4%	0	-1.1	8	x
CC(C)OC(=O)Cn1c(=O)oc2ccccc21	-10%	2	0.8	8	-12
CCN(CC)CCCNCC(=O)Nc1ccc2c(c1)CCC2	4%	-8	3.1	-6	x
Cn1c(=O)oc2cc(S(=O)(=O)Nc3cccc(F)c3)ccc21	-10%	-1	-0.5	3	-15	Arbovirus anti repeat=4
CC(=O)c1cccc(NC(=O)c2cccc(S(=O)(=O)N(C)C)c2)c1	-2%	7	17	0	-19
CC1CCN(C(=O)c2cc(-c3ccc4c(c3)OCO4)on2)CC1	x	5	0.9	x	x
CN(C)S(=O)(=O)N1CCC(n2nccc2NC(=O)CCCc2ccccc2)CC1	x	-1	-1.6	x	x
CCOc1ccc(S(=O)(=O)N(CC(=O)N2CCC(C(N)=O)CC2)c2ccc(F)cc2)cc1	x	-13	-0.5	x	x
N#CCCn1cc(C(=O)Nc2ccccc2Br)c(-c2cccs2)n1	4%	4	-1.2	-16	-24
Cc1ccc(S(=O)(=O)N2CCCCC2)cc1NC(=O)COC(=O)c1ccccc1F	-7%	1	0.8	-2	x
COc1ccc(N=c2oc3ccccc3cc2C(=O)Nc2ccccn2)cc1OC	-7%	0	-1.0	-8	x
CCN(CC)S(=O)(=O)c1ccc(O)c(NC(=O)CN2CCc3ccccc3C2)c1	-3%	-1	3.8	8	x
O=C(Nc1ccccc1-c1nnc(SCc2ccc(Cl)cc2)o1)c1ccccc1	0%	14	-3.2	6	-26
CC(=O)NCC(=O)OCC(=O)Nc1nc(-c2ccccc2)cs1	-2%	0	-3.9	15	x
O=C(Nc1cccc(Cl)c1N1CCOCC1)c1cc([N+](=O)[O-])ccc1N1CCOCC1	x	-6	1.0	x	x
CC(C)c1ccc(S(=O)(=O)Nc2ccc(SC(F)F)cc2)cc1	13%	12	10	-36	-15
Cc1ccc(N2CC(C(=O)Nc3nnc(SCCN4CCOCC4)s3)CC2=O)cc1C (centres undefined)	x	9	5.4	x	x
OCc1ccccc1OCCCOc1cccc2cccnc12	x	8	3.4	x	x

Entries shown so far containing two or more sulfur atoms, in the order listed:
SMILES	Mtb H37Rv	Mtb bLac sens	RecA splice inh	Arbovirus anti	YopH inh	others
CN1C(=S)SC(C)(C)C1(C)NO (centres undefined)	x	-7	-4.3	-2	3
CC(C)c1ccc(S(=O)(=O)Nc2ccc(SC(F)F)cc2)cc1	13%	12	10	-36	-15
Cc1ccc(N2CC(C(=O)Nc3nnc(SCCN4CCOCC4)s3)CC2=O)cc1C (centres undefined)	x	9	5.4	x	x

In the list so far, these contain an aryl thioether with sulfur outside any ring.
SMILES	Mtb H37Rv	Mtb bLac sens	RecA splice inh	Arbovirus anti	YopH inh	others
O=C(Nc1ccccc1-c1nnc(SCc2ccc(Cl)cc2)o1)c1ccccc1	0%	14	-3.2	6	-26
CC(C)c1ccc(S(=O)(=O)Nc2ccc(SC(F)F)cc2)cc1	13%	12	10	-36	-15
Cc1ccc(N2CC(C(=O)Nc3nnc(SCCN4CCOCC4)s3)CC2=O)cc1C (centres undefined)	x	9	5.4	x	x

Returning to the listing with the 2 entries that preceded the break.
SMILES	Mtb H37Rv	Mtb bLac sens	RecA splice inh	Arbovirus anti	YopH inh	others
Cc1ccc(N2CC(C(=O)Nc3nnc(SCCN4CCOCC4)s3)CC2=O)cc1C (centres undefined)	x	9	5.4	x	x
OCc1ccccc1OCCCOc1cccc2cccnc12	x	8	3.4	x	x
Cc1ccc(S(=O)(=O)N(C)C)cc1NC(=O)COC(=O)CC1CCCC1	x	1	0.2	x	x
N#CCSc1nnc(Cc2ccc3c(c2)OCO3)o1	-7%	50	0.9	-2	-29
O=C(COc1ccccc1-c1ccccc1)c1ccccc1	5%	31	7.5	-4	-17
CCOC(=O)C1=C(C)N(C)C(=O)NC1c1cc2c(cc1[N+](=O)[O-])OCO2 (centres undefined)	-2%	-2	-9.4	-2	x
CC(=O)c1cccc(N(CC(=O)Nc2ccc(S(=O)(=O)N3CCCC3)cc2)S(C)(=O)=O)c1	x	5	-1.8	x	x
CC(C)Nc1nc(-c2ccccn2)nc(-c2ccccc2)c1C#N	9%	3	-1.6	-3	x
CCOC(=O)/C(C#N)=C1\C=CN(C)C(C)=N1	-10%	-2	0.5	-5	3
Cc1nc(SCC(=O)NCCc2ccccc2)nc(C)c1C	1%	4	-3.9	1	-21
CCOC(=O)c1nc(C)n(-c2ccc([N+](=O)[O-])cc2)n1	4%	3	-1.6	8	x
COc1cccc(Nc2ncnc3onc(-c4ccccc4OC)c23)c1	x	-3	0.3	x	x
CCCCC(C(=O)NC1CCCC1)N(C(=O)c1snc(C(N)=O)c1N)c1ccc(C)cc1 (centres undefined)	x	1	0.3	x	x
CCCn1cnc2cc(NCc3cccs3)ccc21	-3%	5	-1.2	x	x
COc1ccc(-c2oc3ncn4nc(COc5ccccc5)nc4c3c2-c2ccc(OC)cc2)cc1	-1%	6	1.9	-2	-34
Cc1nc(-c2ccc(C(F)(F)F)cc2)sc1C(=O)NN	12%	-2	-0.3	x	x
COc1ccc(C2CC3(CC(C)(C)NC(=O)N3)Oc3cc(O)ccc32)cc1 (centres undefined)	-5%	5	1.0	-8	-36
COc1ccc(-c2nnc(SCC(=O)O)n2C)cc1OC	-10%	-1	-1.9	8	x
COC(=O)c1ccccc1NC(=O)c1cnn2c(C)cc(C)nc12	-1%	48	-2.3	-13	x
CCN(CC)c1ccc(NC(=O)/C=C\c2ccccc2Cl)cc1	-6%	-4	6.5	-13	-26
COc1ccc(CC(=O)N(C)Cc2ccc(Cl)cc2)cc1S(=O)(=O)N1CCOCC1	x	-4	-0.6	x	x
CSc1ccc(C2(O)Cc3cccc[n+]3C2c2ccccc2)cc1 (centres undefined)	4%	0	x	x	x
O=C(NCc1ccccc1)[C@@H]1CSC2c3ccccc3C(=O)N21 (some centres undefined)	-1%	-4	1.1	2	-14
Cc1ccc(NC(=O)N2CCC(O)(c3cccnc3)CC2)cc1	-5%	-1	-1.2	3	2
CC1C(=O)N2CCCc3cc(NS(=O)(=O)c4ccccc4)cc1c32 (centres undefined)	x	-10	1.2	x	x
COc1cc(/C=C/C(=O)c2ccc(O)cc2)ccc1OCC#N	18%	81	4.7	-32	-18
Cn1c(O)c(C=NC2CC(C)(C)NC(C)(C)C2)c(=O)n(C)c1=O	-4%	1	1.4	-2	-30

Quoted at random: 2 records from the list, in no set order.
SMILES	Mtb H37Rv	Mtb bLac sens	RecA splice inh	Arbovirus anti	YopH inh	others
Cn1c(O)c(C=NC2CC(C)(C)NC(C)(C)C2)c(=O)n(C)c1=O	-4%	1	1.4	-2	-30
COc1ccc(-c2nnc(SCC(=O)O)n2C)cc1OC	-10%	-1	-1.9	8	x

The listing continues:
SMILES	Mtb H37Rv	Mtb bLac sens	RecA splice inh	Arbovirus anti	YopH inh	others
O=C(Cc1nnc(NC(=O)Nc2ccc(F)cc2)s1)NCc1ccccc1	2%	-8	1.6	x	x
CCC(C(=O)NCC1CCCO1)N(C(=O)c1snc(C(N)=O)c1N)c1ccc(Cl)cc1 (centres undefined)	x	0	-3.0	x	x
CC(C)=CCC/C(C)=C/C=N/NC(=O)c1cccc([N+](=O)[O-])c1	5%	93	2.8	-28	-16
CC1CC(C)CN(C(=O)CCCn2c(=S)[nH]c3ccccc3c2=O)C1 (centres undefined)	-7%	-8	0.2	-8	-42
Cc1nc(-c2ccncc2)sc1C(=O)Nc1ccc(Cl)cc1	5%	-11	-0.6	-3	x
N#Cc1ccsc1NC(=O)CN1CCN(Cc2ccccc2)CC1	6%	1	1.3	-1	x
Cc1cccc(C(=O)N2CC3(C)CC2CC(C)(C)C3)c1 (centres undefined)	-6%	5	-1.5	18	-15
CCOc1ccc(Br)cc1S(=O)(=O)Nc1ccc(C(=O)OCC(=O)N(C)c2ccccc2)cc1	-6%	-2	2.3	-5	-23
Cc1nn(CC(=O)Nc2ccc(Br)cc2F)c(=O)c2cccn12	x	-5	1.8	x	x
CN(CC(=O)NNC(=O)CNC(=O)c1ccccc1Cl)S(=O)(=O)c1ccc(Cl)cc1	x	-10	1.1	x	x
Cc1ccc(NC(=S)N2CCCC(CO)C2)c(C)c1 (centres undefined)	1%	-3	-2.4	-3	x
COc1ccc(OCCOCCOc2ccc(C)cc2[N+](=O)[O-])cc1	18%	1	2.8	-1	-5
O=C(Oc1cccc(N2C(=O)C3C4c5ccccc5C(c5ccccc54)C3C2=O)c1)c1ccco1 (centres undefined)	1%	1	11	-4	-28
Cc1cc(NC(=O)c2c([N+](=O)[O-])cnn2C)no1	-2%	-3	0.2	6	-31
CCCNc1c(NS(=O)(=O)c2ccc(C)c(C)c2)c(=O)oc2ccccc12	x	5	-0.2	x	x
O=C1CC(NC(=O)C(F)(F)F)=NN1c1ccccc1	52%	-4	90*	-27	x
CCOC(=O)Nc1ccc2c(CN3C(=O)NC(CC)(CC)C3=O)cc(=O)oc2c1	-7%	-12	-4.5	-20	-17
Cc1ccc(-c2nnc(SCC(=O)n3c4c(c5ccccc53)CCCC4)o2)cc1	x	42	0.6	6	-17
CCc1ccc(NC(=O)CSc2nc3[nH]ncc3c(=O)[nH]2)cc1	37%	23	-6.3	5	x
CS(=O)(=O)N(CC(=O)Nc1ccccc1C(=O)N1CCOCC1)c1ccc(F)c(Cl)c1	x	-4	-3.7	x	x
O=C(Nc1ccccn1)C12CC3CC(CC(C3)C1)C2	-12%	x	0.1	-10	-8
Cc1ccc(S(=O)(=O)C(NC(=O)c2ccccc2)=C(Cl)Cl)cc1	-7%	-6	-6.0	x	-10
O=C(CCn1c(=S)oc2ccccc21)NCCC1=CCCCC1	3%	1	-0.7	x	x
CCOC(=O)c1cnc(SC)nc1NCCOC	2%	-1	-2.7	3	x
CCCn1cc(S(=O)(=O)CC(=O)NC2CCCCC2)c2ccccc21	10%	-3	0.4	-4	-16	Arbovirus anti repeat=3

Screens deposited in PubChem by several laboratories.

A portion of the library; rates above refer to the full screens.
